# High-throughput results: PubChem BioAssay, Broad Institute
# Vaccinia stage – Vaccinia orthopox stage-specific inhibition; AID 1053133; activity change (mCherry), % (test concentration not listed); Vaccinia-infected cells, mCherry/Venus stage reporter fluorescence; active compounds read low; some inactives read as strong as hits; 89,000 compounds, 0.01% hits;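 active = mCherry past -33% and 40 or more points under the early reporter, replicates agreeing; inconclusive = past -33% without that gap or agreement; tested in A549 cells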;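 also: scaled between vehicle wells and reference inhibitor wells; 23 nL library stock went into each well; one replicate is shown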
# Vaccinia stage Venus – further read-out of Vaccinia stage, marked with its call; activity change (Venus), %; measured here: Venus reporter, other viral stage;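 negative = less Venus signal; first of two replicates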
# * hit, by the source's call; ? = inconclusive; . = not tested or not shown; & = joins results of further samples. Not all compounds are listed; the hit share may differ from the screen's.
SMILES,Vaccinia stage,Vaccinia stage Venus
C[C@@H]1CCCCO[C@@H](CN(C)C(=O)Nc2cccc3ccccc23)[C@@H](C)CN([C@@H](C)CO)C(=O)c2cc(NC(=O)c3ccccc3)ccc2O1,-14,-1
COc1ccc(C#Cc2ccc3c(c2)O[C@H](CN(C)C(=O)Nc2cccc(OC)c2)[C@H](C)CN([C@H](C)CO)S3(=O)=O)cc1,-18,-14
CCCNC(=O)[C@@H]1[C@@H](CO)[C@@H]2Cn3c(ccc(/C=C/c4ccccc4)c3=O)[C@@H]2N1CC1CC1,-24,-10
Cc1cccc(S(=O)(=O)N2C[C@H]3[C@@H](c4ccccc42)[C@@H](CO)N3C(=O)CC2CC2)c1,10,14
O=C(C[C@@H]1CC[C@@H]2[C@H](COC[C@@H](O)CN2CC2CCOCC2)O1)NCC1CCCCC1,6,3
CC(=O)N(C)C[C@H]1Oc2cc(C#C[C@H](C)O)ccc2S(=O)(=O)N([C@@H](C)CO)C[C@@H]1C,11,9
COC(=O)C[C@H]1CC[C@@H]2[C@H](COc3ccc(NC(=O)NC(C)C)cc3C(=O)N2C)O1,18,12
OC[C@H]1[C@H](c2ccc(C#CC3(O)CCCC3)cc2)[C@H]2CN(Cc3ccccc3F)CCCCN21,-28,-27
C[C@H](CO)N1C[C@H](C)[C@H](CN(C)C(=O)Nc2cccc(F)c2)Oc2ncc(C3=CCCC3)cc2C1=O,-29,-24
C[C@H]1CCCCO[C@H](CN(C)S(=O)(=O)c2ccccc2)[C@@H](C)CN([C@@H](C)CO)C(=O)c2cc(NC(=O)c3ccccc3)ccc2O1,-24,-18
C[C@@H]1CN([C@@H](C)CO)C(=O)c2cc(NC(=O)Nc3ccc4c(c3)OCO4)ccc2O[C@@H]1CN(C)C,10,3
CC(C)NC(=O)Nc1ccc2c(c1)C(=O)N([C@@H](C)CO)C[C@@H](C)[C@H](CN(C)C)OCCCC[C@H](C)O2,8,-7
COCC#Cc1cnc2c(c1)C(=O)N([C@H](C)CO)C[C@@H](C)[C@@H](CN(C)C(C)=O)O2,5,3
CCC(=O)N(C)C[C@H]1Oc2cc(-c3ccc(F)cc3)ccc2S(=O)(=O)N([C@@H](C)CO)C[C@@H]1C,-3,-5
CNC[C@H]1OCCCC[C@@H](C)Oc2ccc(NS(=O)(=O)c3ccc(Cl)cc3)cc2C(=O)N([C@H](C)CO)C[C@H]1C,2,4
COc1ccc(S(=O)(=O)Nc2ccc3c(c2)C(=O)N([C@@H](C)CO)C[C@H](C)[C@H](CN(C)C(=O)Nc2ccc(F)cc2)O3)cc1,16,6
Cc1noc(C)c1S(=O)(=O)N(C)C[C@H]1OCCCC[C@@H](C)Oc2ccc(NC(=O)Nc3ccc(F)cc3)cc2C(=O)N([C@@H](C)CO)C[C@H]1C,-8,7
C[C@@H]1CN([C@H](C)CO)C(=O)Cc2cc(NC(=O)Nc3ccc4c(c3)OCO4)ccc2O[C@H]1CN(C)Cc1ccc(C(=O)Nc2ccccc2N)cc1,16,8
COc1ccc(CN(C)C[C@@H]2OCCCC[C@H](C)Oc3ccc(NS(C)(=O)=O)cc3C(=O)N([C@H](C)CO)C[C@H]2C)cc1,6,19
CC(C)NC(=O)Nc1cccc2c1O[C@@H](CN(C)Cc1ccc(C(=O)Nc3ccccc3N)cc1)[C@@H](C)CN([C@@H](C)CO)C2=O,5,6
CCS(=O)(=O)N[C@H]1CC[C@H](CC(=O)NCc2ccc(F)cc2)O[C@H]1CO,10,8
Cc1cccc(-c2ccc([C@@H]3[C@H]4CN(S(=O)(=O)c5cccs5)CCCCN4[C@H]3CO)cc2)c1,15,-2
COCC#Cc1ccc(CC[C@H]2O[C@H]3CC[C@@H](CO)O[C@H]3C[C@@H]2n2cc(C3(O)CCCC3)nn2)cc1,9,3
CO[C@H]1CN(C)C(=O)c2ccc(NC(=O)c3ccccc3F)cc2OC[C@@H](C)N(CC2CC2)C[C@@H]1C,-11,-5
C[C@@H]1CN([C@H](C)CO)C(=O)c2cc(NS(=O)(=O)c3ccc(Cl)cc3)ccc2O[C@@H](C)CCCCO[C@@H]1CN(C)S(=O)(=O)c1ccccc1,-29,-16

# (listing goes on)
SMILES,Vaccinia stage,Vaccinia stage Venus
CO[C@@H]1CN(C)C(=O)c2ccc(NS(=O)(=O)c3c(C)noc3C)cc2OC[C@H](C)NC[C@H]1C,11,3
C[C@H]1CCCCO[C@@H](CN(C)S(=O)(=O)c2cccs2)[C@@H](C)CN([C@@H](C)CO)C(=O)c2cc(NS(=O)(=O)c3ccc(F)cc3)ccc2O1,?,.
CN1C(=O)c2cc(NC(=O)c3ccc(F)cc3)ccc2OC[C@H]2O[C@H](CC(=O)NCC3CC3)CC[C@H]21,-8,2
C[C@H]1CN([C@@H](C)CO)C(=O)c2cc(C3=CCCCC3)cnc2O[C@H]1CN(C)Cc1ccncc1,-3,-11
CN1c2ccc(C3=CCCCC3)cc2[C@@H]2[C@@H](CCN2C(=O)C2CCCC2)[C@H]1CO,-27,-18
N#C[C@@H]1[C@@H](c2ccc(C#Cc3cccc(F)c3)cc2)[C@@H](CO)N1C(=O)C1CCC1,-8,-9
Cc1ccc(S(=O)(=O)Nc2ccc3c(c2)C(=O)N([C@H](C)CO)C[C@@H](C)[C@@H](CN(C)C(=O)C2CCCCC2)OCCCC[C@H](C)O3)cc1,?,.
CO[C@@H]1CN(C)C(=O)c2ccc(NC(=O)Nc3ccccc3)cc2OC[C@@H](C)N(C(C)=O)C[C@H]1C,28,11
CC(=O)N1[C@H](C(=O)NCc2ccc(F)cc2)[C@@H](CO)[C@@H]2Cn3c(cccc3=O)[C@@H]21,-2,7
C[C@H]1CN([C@@H](C)CO)C(=O)c2cc(Br)cnc2O[C@@H]1CN(C)C(=O)c1ccccc1F,5,1
O=C(C[C@H]1C[C@H]2c3cc(NC(=O)CC4CC4)ccc3O[C@H]2[C@@H](CO)O1)NCC(F)(F)F,8,15
O=S(=O)(c1ccccc1F)N1CCCCN2[C@H](CO)[C@H](c3ccc(-c4ccncc4)cc3)[C@H]2C1,17,13
C[C@H]1CN([C@@H](C)CO)C(=O)c2cccc(N(C)C)c2O[C@@H]1CN(C)C(=O)NC1CCCCC1,17,15
COc1ccccc1C(=O)Nc1ccc2c(c1)C(=O)N(C)C[C@@H](OC)[C@H](C)CN[C@@H](C)CO2,2,5
COCC(=O)N1CC(=O)N2[C@H](CO)[C@@H](c3ccc(C#Cc4cccnc4)cc3)[C@@H]2C1,9,3
C=CCNC(=O)[C@H]1[C@@H]2C(=O)O[C@@H](c3ccccc3)[C@@H](c3ccccc3)N2[C@@H](c2ccccc2OCCO)[C@]12C(=O)N(C(=O)OCCOC)c1ccc(C#CC3(O)CCCCCC3)cc12,-26,-20
C[C@H]1CN([C@@H](C)CO)C(=O)c2cc(NS(=O)(=O)c3ccc(F)cc3)ccc2O[C@H]1CN(C)S(=O)(=O)c1ccc(F)cc1,4,-1
CN1c2ccc(C#Cc3cccnc3)cc2[C@@H]2[C@@H](CCN2C(=O)C2CCCCC2)[C@H]1CO,3,5
CCC(=O)Nc1ccc2c(c1)OC[C@@H](C)N(Cc1ccccc1F)C[C@@H](C)[C@@H](OC)CN(C)C2=O,-18,-9
N#Cc1cccc(-c2ccc([C@@H]3[C@@H](CO)N4CCCCN(C(=O)Cc5cccnc5)C[C@@H]34)cc2)c1,11,-1
CCC(=O)N1CCCCN2[C@H](C1)[C@@H](c1ccc(-c3cccnc3)cc1)[C@@H]2CO,29,11
Fc1ccc(F)c(CN2[C@@H]3CNC[C@H]2C3c2ccc(-c3ccncc3)cc2)c1 (stereo not given in full),1&0,10&0
N#C[C@@H]1[C@@H](c2ccc(-c3cccnc3)cc2)[C@H](CO)N1C(=O)C1CCC1,0,2
CCC(=O)N1C[C@@H](C)[C@H](OC)CN(C)C(=O)c2cc(NC(=O)C3CCOCC3)ccc2OC[C@@H]1C,19,2
O=C(C[C@H]1CC[C@H]2[C@@H](COC[C@H](O)CN2Cc2ccccc2)O1)N1CCOCC1,17,15

# As a working copy, part of the list above.
SMILES,Vaccinia stage,Vaccinia stage Venus
C=CCNC(=O)[C@H]1[C@@H]2C(=O)O[C@@H](c3ccccc3)[C@@H](c3ccccc3)N2[C@@H](c2ccccc2OCCO)[C@]12C(=O)N(C(=O)OCCOC)c1ccc(C#CC3(O)CCCCCC3)cc12,-26,-20
C[C@H]1CN([C@@H](C)CO)C(=O)c2cc(NS(=O)(=O)c3ccc(F)cc3)ccc2O[C@H]1CN(C)S(=O)(=O)c1ccc(F)cc1,4,-1
CN1c2ccc(C#Cc3cccnc3)cc2[C@@H]2[C@@H](CCN2C(=O)C2CCCCC2)[C@H]1CO,3,5
CCC(=O)Nc1ccc2c(c1)OC[C@@H](C)N(Cc1ccccc1F)C[C@@H](C)[C@@H](OC)CN(C)C2=O,-18,-9
N#Cc1cccc(-c2ccc([C@@H]3[C@@H](CO)N4CCCCN(C(=O)Cc5cccnc5)C[C@@H]34)cc2)c1,11,-1
CCC(=O)N1CCCCN2[C@H](C1)[C@@H](c1ccc(-c3cccnc3)cc1)[C@@H]2CO,29,11
Fc1ccc(F)c(CN2[C@@H]3CNC[C@H]2C3c2ccc(-c3ccncc3)cc2)c1 (stereo not given in full),1&0,10&0
N#C[C@@H]1[C@@H](c2ccc(-c3cccnc3)cc2)[C@H](CO)N1C(=O)C1CCC1,0,2
CCC(=O)N1C[C@@H](C)[C@H](OC)CN(C)C(=O)c2cc(NC(=O)C3CCOCC3)ccc2OC[C@@H]1C,19,2
O=C(C[C@H]1CC[C@H]2[C@@H](COC[C@H](O)CN2Cc2ccccc2)O1)N1CCOCC1,17,15

# The list goes on:
SMILES,Vaccinia stage,Vaccinia stage Venus
CC(C)NC(=O)N1CCCCN2[C@H](CO)[C@H](c3ccc(C#Cc4ccccc4)cc3)[C@H]2C1,?,.
O=C(CCN1CCCCC1)NCC[C@H]1CC[C@H](NC(=O)C2CCC2)[C@H](CO)O1,0,5
CCCNC(=O)N(C)C[C@H]1Oc2cc(-c3ccccc3)ccc2S(=O)(=O)N([C@@H](C)CO)C[C@H]1C,-9,-7
C[C@H]1CCCCO[C@H](CN(C)CC2CCCCC2)[C@@H](C)CN([C@@H](C)CO)C(=O)c2cc(NS(=O)(=O)c3ccccc3)ccc2O1,?,.
COCC#Cc1ccc([C@H]2[C@@H](CO)N3C(=O)CN(C(=O)Nc4ccc(F)cc4)C[C@H]23)cc1,25,9
C[C@@H]1CN([C@H](C)CO)C(=O)Cc2cc(NC(=O)Cc3ccccc3)ccc2O[C@@H]1CN(C)S(=O)(=O)c1ccccc1,8,8
CN(C)CC(=O)Nc1ccc2c(c1)[C@H]1C[C@H](CC(=O)NC3CCCCC3)O[C@@H](CO)[C@H]1O2,-1,3
Cc1noc(C)c1S(=O)(=O)Nc1ccc2c(c1)CC(=O)N([C@H](C)CO)C[C@H](C)[C@@H](CN(C)C(=O)NC(C)C)O2,22,18
COc1ccc(C#Cc2ccc3c(c2)[C@H]2[C@H](CCN2Cc2ccncc2)[C@@H](CO)N3)cc1,-2,-7
C[C@H](CO)N1C[C@H](C)[C@@H](CN(C)S(=O)(=O)c2cccs2)OCc2ccccc2-c2ccccc2C1=O,-1,-15
CC(C)CC#Cc1ccc2c(c1)O[C@@H](CN(C)C(=O)C1CCC1)[C@@H](C)CN([C@@H](C)CO)S2(=O)=O,-9,-4
C[C@@H]1CN([C@H](C)CO)S(=O)(=O)c2ccc(C#Cc3ccccc3)cc2O[C@@H]1CN(C)C(=O)c1ccccn1,?,.
Cc1ccccc1S(=O)(=O)N(C)C[C@H]1OCc2ccccc2-c2c(n(C)c3ccccc23)C(=O)N([C@H](C)CO)C[C@H]1C,?,.
C[C@H]1CN([C@@H](C)CO)C(=O)Cc2cc(NC(=O)c3ccncc3)ccc2O[C@H]1CN(C)Cc1ccc2c(c1)OCO2,8,0
C[C@@H]1CN([C@H](C)CO)C(=O)Cc2cc(NS(=O)(=O)c3ccccc3)ccc2O[C@@H]1CN(C)Cc1ccccc1,-10,-3
N#Cc1ccc(-c2ccc([C@@H]3[C@H](CO)N4CCCCN(S(=O)(=O)c5ccccc5)C[C@@H]34)cc2)cc1,2,-10
COc1ccc(S(=O)(=O)N(C)C[C@H]2Oc3cc(C4=CCCC4)ccc3S(=O)(=O)N([C@@H](C)CO)C[C@@H]2C)cc1,-21,-24
CCNC(=O)C[C@@H]1CC[C@H]2[C@H](COc3ccc(NC(=O)Nc4cccc(F)c4)cc3C(=O)N2C)O1,2,5
Cc1noc(C)c1S(=O)(=O)N(C)C[C@H]1OCCCC[C@@H](C)Oc2ccc(NC(=O)Cc3ccccc3)cc2C(=O)N([C@@H](C)CO)C[C@H]1C,?,.
CN(C)C(=O)C[C@H]1C[C@H]2c3cc(NC(=O)C4CCC4)ccc3O[C@H]2[C@@H](CO)O1,7,5
CC=Cc1ccc2n(c1=O)C[C@@H]1[C@@H](CO)[C@H](C(=O)NCCc3ccncc3)[C@H]2N1CCc1ccccc1 (mixture of isomers),13,4
O=C(NCc1ccc(F)cc1)[C@@H]1[C@@H](CO)[C@@H]2Cn3c(cccc3=O)[C@H]1N2CC1CC1,16,0
CCC(=O)N1CC2(C1)[C@H](c1ccccc1)[C@@H](CO)N2Cc1cccc(Cl)c1,6,4
O=C(Nc1ccc(F)cc1)N1CCCCN2[C@H](C1)[C@H](c1ccc(C#Cc3ccccc3)cc1)[C@@H]2CO,-20,-23
Cc1ccc(S(=O)(=O)N(C)C[C@@H]2Oc3ccc(NS(C)(=O)=O)cc3C(=O)N([C@@H](C)CO)C[C@@H]2C)cc1,13,9
CCC(=O)N[C@@H]1CC[C@@H](CCn2cc(-c3cccc(OC)c3)nn2)O[C@@H]1CO,-8,-9
C[C@@H]1CN([C@H](C)CO)C(=O)c2cccc(NC(=O)NC3CCCCC3)c2O[C@@H]1CN(C)Cc1ccc2c(c1)OCO2,1,2
C[C@H]1CN([C@@H](C)CO)C(=O)c2ccccc2-c2ccccc2CO[C@H]1CN(C)Cc1cccnc1,13,6
C[C@H]1CN([C@@H](C)CO)C(=O)c2cccc(NC(=O)c3nc4ccccc4s3)c2O[C@H]1CN(C)C(=O)Nc1ccccc1,-22,-19
